LANA-nucl inh: inhibitors of KSHV LANA-nucleosome binding, primary screen, biochemical, fluorescence polarization, FITC-LANA1-23, chicken nucleosomes. AID 720717, 2013. hit rate 0.3% among 51,000. z-score (test concentration not listed). FITC-LANA1-23 / chicken nucleosome fluorescence polarization; hits give low values;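 active = both repeat wells score below -2 in polarization z-score versus plate sample wells, excluding overly bright wells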;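 also: 100 nL library stock added to about 30 µL; numbers are from one replicate; some results filed as inactive read as strong as hits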
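Assay system: FITC-LANA peptide and chicken nucleosomes; input: 240 nM purified chicken nucleosomes (480 nM peptide binding sites), final; also added: 50 nM FITC-LANA1-23 probe; medium: TEN-BT buffer, pH 7.5; doses: pin-transferred compound, 100 nL; times: 10–45 min, room temperature; technique: fluorescence polarization; replication: duplicates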
Ab BasE inh: BasE siderophore enzyme inhibitors, primary screen, biochemical, Acinetobacter baumannii ATCC 17978, fluorescence polarization | hit rate 0.1% among 84,000 | inhibition, % (concentration not given with the values) | AID 485350, 2010 | purified BasE, fluorescence polarization binding displacement;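 active = both replicates above 25% with normal brightness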;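 also: 0% = negative plate control signal and 100% = positive plate control signal; stock transfer was 100 nL into about 30 µL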
An asterisk follows results filed as active; . = not tested or not shown; & = joins results of further samples. This is a subset, so the mix of outcomes need not match the whole.

compound	LANA-nucl inh	Ab BasE inh
Brc1ccc(-c2nnc3sc(CN4CCc5ccccc54)cn23)cc1	0.44	-1.9
Cc1nnc(SC(C)C(=O)N(C)C2CCCCC2)n1N (stereo not given)	.	0.3
CC1=C(C(=O)OC2CCCC2)C(c2coc3ccc(C)cc3c2=O)C2=C(CC(c3ccco3)CC2=O)N1 (stereo not given)	-1.2	-1.3
Cc1cccc(C(=O)NCCC(=O)N2CCc3ccccc3C2)c1	.	0.2
COc1ccc(N2CCN(S(=O)(=O)c3ccc(-n4[nH]c(=O)c5ccccc5c4=O)cc3)CC2)cc1	0.26	1.3
CCNc1cc(N2CCC3(CC2)OCCO3)c2noc3c2c1C(=O)c1ccccc1-3	-0.25	-31
CC(=O)NC12CC3CC(C1)CC(C(=O)OCC(=O)N1CCC(c4ccccc4)=N1)(C3)C2	.	0.4
CCN1C(=O)C(=C2C=C(C)N(CCO)C(C)=C2)C(=O)N(CC)C1=S	.	-0.1

6 neighbouring records out of the list so far:
compound	LANA-nucl inh	Ab BasE inh
Brc1ccc(-c2nnc3sc(CN4CCc5ccccc54)cn23)cc1	0.44	-1.9
Cc1nnc(SC(C)C(=O)N(C)C2CCCCC2)n1N (stereo not given)	.	0.3
CC1=C(C(=O)OC2CCCC2)C(c2coc3ccc(C)cc3c2=O)C2=C(CC(c3ccco3)CC2=O)N1 (stereo not given)	-1.2	-1.3
Cc1cccc(C(=O)NCCC(=O)N2CCc3ccccc3C2)c1	.	0.2
COc1ccc(N2CCN(S(=O)(=O)c3ccc(-n4[nH]c(=O)c5ccccc5c4=O)cc3)CC2)cc1	0.26	1.3
CCNc1cc(N2CCC3(CC2)OCCO3)c2noc3c2c1C(=O)c1ccccc1-3	-0.25	-31

Continuation:
compound	LANA-nucl inh	Ab BasE inh
O=C(O)COc1ccc(Br)cc1CO	-0.21	6.2
N#Cc1cc(Sc2ccc(Cl)cc2)c(-n2nnc3ccccc32)cc1C#N	0.5	1.3
CCCn1c(=NC(=O)C(C)(C)C)sc2c(OC)ccc(OC)c21	-0.46	-0.9
CN(Cc1cccs1)C(=O)c1nc(-c2ccccc2)n(-c2ccccc2)n1	.	0.3
CCc1ccc(NC(=O)C(C)OC(=O)/C=C/c2ccco2)cc1 (stereo not given)	.	-0.6
CCCCn1c2nc3ccccc3nc2c2c(N)ncnc21	.	-0.4
CC(C)CN1CCOC(CNC(=O)NC2CCCCC2)C1 (stereo not given)	.	0.9
O=C1C2C3c4ccccc4C(c4ccccc43)C2C(=O)N1Cc1ccccn1 (stereo not given)	0.45	-0.8

(more compounds)
compound	LANA-nucl inh	Ab BasE inh
CC(=O)Nc1cccc(C(=O)OCc2ccccc2)c1	-1.3	-1.1
COc1ccc(-c2cc(=Nc3ccc(O)cc3)c3cc(C)ccc3o2)cc1	.	-1.4
CC(=O)N1CCc2cc(NC(=O)Nc3cccc(Cl)c3)ccc21	0.071	0.5
CC(N=Cc1c(O)[nH]c2ccccc12)c1ccccc1 (stereo not given)	0.24	3.1
O=C(NCC1CCN(Cc2cccc(Cl)c2)CC1)Nc1ccc2c(c1)OCCO2	-0.2	1.2
O=C(NCc1ccco1)c1ccccc1NS(=O)(=O)c1ccc(F)cc1	0.61	-0.3
C[n+]1cc2c3c(ccc2c2ccc4cc5c(cc4c21)OCO5)OCO3	0.081&-0.027&-0.18	0.5&-3.1
O=C(OCC(=O)N1CCCC1)c1ccc(-c2ccc(C(=O)OCC(=O)N3CCCC3)s2)s1	.	-2.8

More compounds:
compound	LANA-nucl inh	Ab BasE inh
Cc1ccc(-c2csc(NC(=O)CCNC(=O)c3ccco3)n2)cc1	.	-3.5
CC(=O)N(C(C)=O)c1ccc2nc(C)[nH]c(=O)c2c1	-0.95	1.6
O=C1c2sc3nc4ccccc4n3c2C(=O)N1c1cc(Cl)ccc1Cl	-3.1	7.6
O=C(Cc1cccs1)Nc1ccccc1	-0.75	2.9
COc1ccc(CCN2COc3cc4c(cc3C2)OCO4)cc1	-0.0065	-3.7
Cc1sc(N)nc1C12CC3CC(CC(C3)C1)C2	.	-0.8
Cc1ccc(CSc2nnc([C@@H](N)C(C)C)o2)cc1	0.88	-1.3
CC(NC1=NCCN1)C(=O)O (stereo not given)	-0.058	-2.2

Going on with the list.
compound	LANA-nucl inh	Ab BasE inh
CCSC1=C(C#N)C(=O)NC(C)S1 (stereo not given)	-1.3	0.7
CCn1c(C)cc2c(c1=O)C(c1cccc(OC)c1)C(C#N)=C(N)O2 (stereo not given)	-0.8	2.2
Cc1ccc(C(=O)COC(=O)CC2Oc3ccccc3NC2=O)c(C)c1 (stereo not given)	.	-2.1
O=C(Nc1ccccc1)c1cc2ccccc2c(=O)o1	.	9.9
CCCNC(=O)OCN1C(=O)c2ccc(N)cc2C1=O	.	1.4
CCSc1nc(N(C)C)nc(N2CCOCC2)n1	0.28	5.2
CC(=O)N1CCN(c2ccccc2N)CC1	-0.95	-0.4
O=C(O)C1CSC(c2cccs2)N1 (stereo not given)	-0.38	1.9

Other records follow.
compound	LANA-nucl inh	Ab BasE inh
CCC(=O)Nc1ccc2c(c1)C(=O)OC2	-1.5	0.1
Nc1cccc2c1C(=O)N(C(=O)c1cccc(S(=O)(=O)N3CCOCC3)c1)C2=O	.	3.5
CC(Sc1nncs1)C(=O)NCc1ccc2c(c1)OCO2 (stereo not given)	.	-1.4
Cc1cc(=O)n(C(C)C(=O)N2CCN(c3ccccc3)CC2)c2c1c(C)nn2-c1ccccc1 (stereo not given)	0.23	0.3
Cc1ccccc1NC(=O)C(NC1CCCCC1)C(C)C (stereo not given)	-0.38	1.8
COC(=O)c1ccc(N2CCN(C)CC2)c(NC(=O)C(C)(C)Oc2ccc(Cl)cc2)c1	-0.68	2.8
CCC1(C)NC(=O)N(/N=C/c2c(F)c(F)c(F)c(F)c2F)C1=O (stereo not given)	.	0.9
Cc1cc(/C=N/N2CCOCC2)c(C)n1-c1cccc(S(=O)(=O)N2CCOCC2)c1	.	-0.3

Next entries:
compound	LANA-nucl inh	Ab BasE inh
c1ccc(CCCNCc2nnc(-c3ccccc3)o2)cc1	1.6	-3.0
CCCc1c(OCCCCc2nn[nH]n2)ccc(C(C)=O)c1O	0.043&0.39	-0.5
Cc1ccc2nc(COC(=O)C3=COCCO3)cc(=O)n2c1	.	0.6
S=c1nc(-c2cccs2)[nH][nH]1	.	2.4
CC(=O)N=c1scc(C)n1C(C)(C)C	.	1.7
CC(C)N(Cc1ccccc1)CC(O)COc1ccc(S(=O)(=O)N2CCOCC2)cc1Cl (stereo not given)	.	1.2
CC(C)NC(=O)COc1ccccc1C#N	.	1.1
CN(C)CCNc1ccc(Cl)nn1	-1.6	1.7

Following part:
compound	LANA-nucl inh	Ab BasE inh
CSc1cccc(NC(=S)NN(C)C)c1	.	-0.8
CCOC(=O)C1(O)c2ccccc2NC(=O)N1C (stereo not given)	.	0.8
CNC(=O)c1cc2c(=O)n3cc(C)ccc3nc2nc1NCC1CCCO1 (stereo not given)	0.19	3.0
CC(C)N(Cc1ccccc1)C(=O)CSc1nnc(-c2ccco2)n1-c1ccccc1	.	1.2
Cc1noc(C)c1COC(=O)c1ccc2c(c1)S(=O)(=O)N=C1CCCCCN12	.	-0.2
Cc1ccc(S(=O)(=O)N2N=C3CCCCC3C2(O)C(F)(F)F)cc1 (stereo not given)	-0.66	1.1
Cc1ccccc1OCC(=O)NC(C)C	1	1.3
N#CC(C#N)=C(c1ccccc1)c1ccccc1	0.25	-0.8

Later entries.
compound	LANA-nucl inh	Ab BasE inh
CCOc1cc(CNc2ccc(N3CCOCC3)cc2)ccc1OCc1ccccc1	.	0.1
Cc1ccc(Nc2nc(N)nc(CN3CCN(C(=O)C4COc5ccccc5O4)CC3)n2)cc1 (stereo not given)	.	1.1
CN1C(=O)Cc2cc(S(=O)(=O)N3CCCCC3)ccc21	-0.72	3.0
CN(C)CCn1c(=S)[nH]c2ccccc2c1=O	.	-0.7
O=CNC(=O)c1ccccc1C(=O)O	.	0.7
NC(=O)N/N=C1\CCc2ccccc21	-0.041	1.9
C=CCN1C(=O)NC(=O)/C(=C\c2cn(Cc3ccccc3)c3ccccc23)C1=O	.	4.0
COc1cc(C(=O)Oc2ccc3c(c2)OCC3=O)cc(OC)c1OC	.	3.0

Profiles as entered above. Order of values: LANA-nucl inh | Ab BasE inh
`NC(=O)N/N=C1\CCc2ccccc21` reads -0.041 | 1.9
`CN(C)CCn1c(=S)[nH]c2ccccc2c1=O` reads . | -0.7
`Cc1ccc(Nc2nc(N)nc(CN3CCN(C(=O)C4COc5ccccc5O4)CC3)n2)cc1` (stereo not given) reads . | 1.1
`COc1cc(C(=O)Oc2ccc3c(c2)OCC3=O)cc(OC)c1OC` reads . | 3.0

(next part)
compound	LANA-nucl inh	Ab BasE inh
COC(=O)c1cc(=O)n2c(nc3cc(C(F)(F)F)ccc32)s1	0.31	1.4
CCNC(=O)N(c1ccccc1)c1ccccc1	0.065	1.2
O=C(CSCCO)Nc1ccccc1	-0.15	4.5
CCN(CC(=O)Nc1ccc(NC(C)=O)cc1)C(=O)C1CCCC1	.	0.7
Cc1cc2nn(CN3CCCC(C)C3)c(=S)n2c2ccccc12 (stereo not given)	.	-0.2
C=CCN1C(=O)/C(=C\c2ccc(O)c(OC)c2)C(=O)NC1=S	.	2.0
CN(Cc1cccnc1)C(=O)CNC(=O)c1ccc(Cl)cc1Cl	.	0.0
O=S1(=O)CC2SC(=S)N(c3cccc(Br)c3)C2C1 (stereo not given)	.	-0.1

(continued)
SMILES	LANA-nucl inh	Ab BasE inh
Cc1ccc(C)n1-c1ccc(-c2ccn[nH]2)cc1	0.24	.
CC1(O)CS(=O)(=O)CC1(C)O (stereo not given)	-0.7	-0.1
CC1CCCCC1NC(=O)c1ccc2ccccc2n1 (stereo not given)	.	0.2
COc1ccc(CCN(Cc2cc3cc(C)ccc3[nH]c2=O)C(=O)N2CCCC2)cc1OC	1	1.0
O=C(Nc1c[nH]c2ccccc12)NC1CCCC1	0.54	-5.0
CCCCN(C)S(=O)(=O)c1ccc(-c2cc(C(F)(F)F)no2)s1	.	0.6
COC(=O)Nc1nc2ccc(C(=O)c3ccccc3)cc2[nH]1	0.47&0.18&-0.049&0.24	-1.2&2.2
CCOC(=O)c1sc(N)c(C#N)c1COC(=O)Cc1n[nH]c(=O)c2ccccc12	.	-18
Cc1cc2occ(CC(=O)OCC(=O)c3ccc4c(c3)NC(=O)CO4)c2cc1C	.	-1.8
CC1CCCCN1C(=O)COC(=O)c1ccc2ccccc2n1 (stereo not given)	.	-1.8
COc1ccc(Cc2nnc3n2N=C(c2ccc(C)c(C)c2)C(C)S3)cc1OC (stereo not given)	.	-2.6
CCc1nnc2c(NCC3CCCO3)nc3ccccc3n12 (stereo not given)	.	1.0
CCn1c(=NC(=O)c2ccc(S(=O)(=O)N(C)C)cc2)sc2cc(C(=O)OC)ccc21	1.9	-0.2
COc1ccccc1C(=O)NCCC(=O)Nc1ccc(N2CCN(C)CC2)cc1C	.	-1.2
COc1ccc(NC(=O)CN2CCC(N3CCCCC3)CC2)c(OC)c1	-0.32	1.6
Cc1cccc(Nc2nc(CC(=O)O)cs2)c1	0.39	-3.7
OC(CN1CCOCC1)Cn1c2ccccc2c2ccccc21 (stereo not given)	0.88	0.1
CCC(O)c1nc2ccccc2n1CCOc1ccc(C)c(C)c1 (stereo not given)	-0.068	3.2
CCCN1CCN(S(=O)(=O)c2cc(OCC)c(-n3cnnn3)cc2OCC)CC1	2.8	-3.4
CSc1cccc(N=Cc2oc(O)c3ccccc23)c1	-1.5	.
CC(C)OP(C)(=O)CN1CCCC1=O (stereo not given)	0.24	3.2
CCOc1ccccc1NC(=O)c1ccc2nc[nH]c2c1	.	-5.9
CCCNC(=O)c1ccc2ncsc2c1	.	1.0
O=C(OCC(=O)N1CCCCC1)c1cccc2ccccc12	.	0.6
O=C(CCCCn1c(=O)[nH]c2ccsc2c1=O)N1CCN(c2ccccc2)CC1	-0.22	-0.2
O=c1c2ccc(Cl)cc2nc(SCc2nnc(-c3cccs3)o2)n1Cc1ccco1	.	1.4
CN(C)/C=C/C=C/c1cc(=O)cc(/C=C/C=C/N(C)C)o1	-0.63	25
COc1nc2sccn2c1/C=N/N1CC(=O)NC1=O	.	3.2
CNC(=S)NN(Cc1ccccc1)c1ccccc1	.	-5.0
CC1(C)Cc2c(c(N3CCOCC3)nc3sc4c(c23)N2C(=O)CCC2(C)NC4=O)CO1 (stereo not given)	-2.3	1.9

Following part
SMILES	LANA-nucl inh	Ab BasE inh
Cc1ccc2c(c1)CCCN2C(=O)C1CCCO1 (stereo not given)	-1.3	2.4
O=C1NCN(c2ccccc2)C12CCN(CCCC(c1ccc(F)cc1)c1ccc(F)cc1)CC2	-0.3&0.13&-0.014	1.4&-1.0
Cc1ccc(S(=O)(=O)NC(=O)CC#N)cc1	0.006	-1.7
Cc1nc(C)nc(NC(=O)NC(=O)c2cc(OCC(F)(F)F)ccc2OCC(F)(F)F)n1	-1.1	-1.4
c1ccc(Cn2nnnc2C(c2ccccc2)N2CCN(Cc3ccncc3)CC2)cc1 (stereo not given)	-0.73	-1.4
O=C(/C=C/c1ccccc1)NCCO	-0.87	-0.2
COc1ccc(Br)cc1C(=O)NCc1cccnc1	-0.31	0.5
Cc1cccc(Cn2ccn(Cc3ccccc3)c(=O)c2=O)c1	0.21	2.4
CCC(CC)C(=O)Nc1cccc(C(=O)NCc2ccco2)c1	1.5	-4.9
COc1ccc(-n2ncc(NC(=O)NCc3ccccn3)c2C)cc1	.	-4.6
c1ccc2c(-c3csc(-c4ccc(-c5ccno5)s4)n3)csc2c1	1.5	-0.4

Screening data deposited in PubChem by ICCB-Longwood Screening Facility, Harvard Medical School.
